VDR inhibitor: vitamin D3 receptor (human) inhibition; VDR-SRC2-3 peptide fluorescence polarization, 2 h; Potency, µM, without a hit: max response, negative = inhibition, most hits filed as inhibitors; 0.93% of 400,000 active; active = well fitted inhibition curve with a large enough effect; inconclusive = small, poorly fitted or top-dose-only effect, or another doubt; inactive = no such curve, though single readings can be large or run the other way; also: series mostly up to about 120 µM
Target sequence (P11473 whole entry, looked up): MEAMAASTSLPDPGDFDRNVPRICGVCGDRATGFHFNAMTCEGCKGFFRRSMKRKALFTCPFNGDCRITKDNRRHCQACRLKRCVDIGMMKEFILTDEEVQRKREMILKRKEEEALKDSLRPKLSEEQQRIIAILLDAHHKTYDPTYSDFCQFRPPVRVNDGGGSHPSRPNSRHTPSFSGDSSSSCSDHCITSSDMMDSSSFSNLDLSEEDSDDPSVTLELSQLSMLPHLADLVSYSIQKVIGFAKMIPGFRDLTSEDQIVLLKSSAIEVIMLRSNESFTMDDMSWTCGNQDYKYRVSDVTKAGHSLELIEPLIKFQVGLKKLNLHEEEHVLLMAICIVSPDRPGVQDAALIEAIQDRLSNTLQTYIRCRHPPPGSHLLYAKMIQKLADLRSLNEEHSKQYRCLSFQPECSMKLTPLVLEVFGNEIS
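Fluorescence polarization assay measuring small-molecule disruption of VDR binding to the coregulator peptide SRC2-3. Compounds were pin-transferred (23 nl) into the reagent mix and incubated 2 h at room temperature before reading.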
* marks the source's active call; other numbers are inactive results; ? = inconclusive; & = joins results of further samples. % is scaled to controls: 0 for no effect and ±100 for the full control effect; potency is read from the fitted curve at half-maximal effect. The list is partial (hit frequency here may not be typical).

A first look, four compounds:
SMILES | VDR inhibitor
Cc1ccc(OCC(=O)Nc2ccc([N+](=O)[O-])cc2)cc1 | -2%
O=C(Cn1cnc2c(nnn2Cc2ccc(F)cc2)c1=O)N1CCCCC1 | 0%
CCOc1ccc(NC(=O)N(Cc2ccc(CC)cc2)Cc2cn[nH]c2-c2ccc(OC)cc2)cc1 | 20%
CCCn1nc(C(=O)NNC(=O)c2cccc(C)c2)c2ccccc2c1=O | -12%

All compounds of this part, repeating the preview:
SMILES | VDR inhibitor
Cc1ccc(OCC(=O)Nc2ccc([N+](=O)[O-])cc2)cc1 | -2%
O=C(Cn1cnc2c(nnn2Cc2ccc(F)cc2)c1=O)N1CCCCC1 | 0%
CCOc1ccc(NC(=O)N(Cc2ccc(CC)cc2)Cc2cn[nH]c2-c2ccc(OC)cc2)cc1 | 20%
CCCn1nc(C(=O)NNC(=O)c2cccc(C)c2)c2ccccc2c1=O | -12%
COc1ccc(NCc2cc3cc4c(cc3n(CC(=O)Nc3ccc(C)c(C)c3)c2=O)OCO4)cc1 | 5%
O=C(COCc1cc(-c2ccc3c(c2)OCO3)on1)N1CCN(c2cccc(Cl)c2)CC1 | -4%&-5%
CNC(=O)[C@]1(C(F)(F)F)C[C@H](CCc2ccccc2)CCCO1 | -22%
CCOCCCNC(=O)C(Cc1ccccc1)NS(=O)(=O)c1cccc2nsnc12 (stereo not drawn) | 7%
COc1ccc(C)cc1S(=O)(=O)n1cnc(C)c1 | -17%
CCCCCOc1ccc(NC(=O)C(=O)NCC2CCCN2CC)cc1 (stereo not drawn) | 10%
O=C(NCCCn1ccnc1)c1ccc(COc2ccccc2)o1 | -8%
CC(Oc1cccc(Cl)c1)C(=O)N1CCN(c2ncccn2)CC1 (stereo not drawn) | 1%
COc1ccc(Cn2c(O)c(C=Nc3ccc(C)cc3)c3ccccc3c2=O)cc1 | -14%
CCNC(=S)N/N=C/c1c(Cl)cccc1Cl | -9%
CC(C)c1ccc(NC(=O)CCC(=O)NCc2ccco2)cc1 | 10%
COc1ccccc1CCn1c(=O)c(-c2ccc(Cl)cc2)nc2cncnc21 | -5%
Cc1ccc(CNC(=O)CCNS(=O)(=O)c2ccc(C)cc2)cc1 | -9%
Cc1ccccc1Cn1nc(C)c(NC(=O)c2cc(-c3ccc(F)cc3)on2)c1C | -16%
COc1ccc(NC(=O)CN(C)CC(=O)Nc2ccc(Cl)c(S(=O)(=O)N(C)C)c2)cc1 | 11%
CCCN1CCN(CC(=O)Nc2nncs2)CC1 | -9%
O=C(COc1ccccc1)Nc1ccc(N2CCN(C(=O)c3cccs3)CC2)cc1 | -9%
CCC1CN(C(=O)N2CCC(C(=O)NCCc3ccccc3OC)CC2)c2ccccc2O1 (stereo not drawn) | -14%
COC(=O)c1cc(NC(=O)CSc2nncn2C)cc(C(=O)OC)c1 | 6%
CCOC(=O)c1sc2ncn(C(C)C(=O)OCC)c(=O)c2c1C (stereo not drawn) | 4%
O=C(CSc1ncccn1)NCCC1=CCCCC1 | -1%

Looked up by structure from the list above, 5 records:
SMILES | VDR inhibitor
CCCn1nc(C(=O)NNC(=O)c2cccc(C)c2)c2ccccc2c1=O | -12%
CNC(=O)[C@]1(C(F)(F)F)C[C@H](CCc2ccccc2)CCCO1 | -22%
Cc1ccc(OCC(=O)Nc2ccc([N+](=O)[O-])cc2)cc1 | -2%
O=C(COCc1cc(-c2ccc3c(c2)OCO3)on1)N1CCN(c2cccc(Cl)c2)CC1 | -4%&-5%
CCOCCCNC(=O)C(Cc1ccccc1)NS(=O)(=O)c1cccc2nsnc12 (stereo not drawn) | 7%

Additional structures.
SMILES | VDR inhibitor
CCn1c(CC(=O)Nc2cccc(OC)c2)nnc1SCC(=O)Nc1nccs1 | 6%
O=C(CCN1CCOCC1)N1CCCC(Nc2cccc(F)c2)C1 (stereo not drawn) | -2%
COc1nccnc1NS(=O)(=O)c1ccc(NCc2ccccc2O)cc1 | ?
CC1CCCCN1C(=O)CSc1nc2c(c(=O)n(C)c(=O)n2C)n1C (stereo not drawn) | -7%
O=C(Cn1nc([N+](=O)[O-])nc1Br)NC(c1ccccc1)c1ccccc1 | 3%
Brc1cc2c(cc1Cn1c(-c3cncs3)nc3ccccc31)OCO2 | 13%
O=S(=O)(N/N=C/c1c(F)cccc1Cl)c1ccccc1 | -15%
Cc1ccc(S(=O)(=O)CCC(=O)OCC(=O)N(C)CC(=O)Nc2ccc(F)cc2)cc1 | -18%
O=C(c1ccc(-n2cccc2)cc1)N1CCCCC1 | -2%
CCn1c(SCC(=O)NCCc2ccc(OC)c(OC)c2)nc2c1c(=O)n(C)c(=O)n2C | -8%
CCOC(=O)c1[nH]c(C)c(C(=O)NCc2ccc(OC)cc2)c1C | 9%
Cc1cccc(C)c1NC(=O)CNC(=O)c1cccc(S(=O)(=O)NCc2cccs2)c1 | 26%
O=C(Nc1ccncc1)c1cccc(S(=O)(=O)N2CCc3ccccc32)c1 | -1%
O=C(COc1ccc(Br)cc1Cl)Nc1ncn[nH]1 | -15%
O=C(C1CCC1)N1CCCc2cc(S(=O)(=O)N3CCN(c4ccccc4)CC3)ccc21 | ?
CCCCOC(=O)CCNc1n[nH]c(=O)[nH]c1=O | -7%
Nc1nc2c([nH]c(=S)n2C2OC(CO)C(O)C2O)c(=O)[nH]1 (stereo not drawn) | ?
COC(=O)NC(C)N1C(=O)C2C3C=CC(C3)C2C1=O (stereo not drawn) | -7%
COc1cc(OC)c(N(C)S(=O)(=O)c2cccc(C(=O)Nc3nccs3)c2)cc1Cl | 27%
COc1ccc(-c2coc3cc(O)ccc3c2=O)c(OC)c1O | -2%
O=C(/C=C/c1ccccn1)c1cc(Cl)cc(Cl)c1O | -27%
COc1ccc2c(c1)c(C(=O)CN1CCCCC1)c(C)n2C | -12%
CCc1ccc(NC(=O)C2CCC(CNS(=O)(=O)c3ccc4c(c3)C(C)(C)C(=O)N4C)CC2)cc1 (stereo not drawn) | 17%
Cc1cccc(NC(=O)c2nc[nH]c2C(=O)Nc2ccccc2[N+](=O)[O-])c1 | -4%
Cc1cc2nc(-c3ccc[nH]c3=O)n(Cc3ccc(F)cc3)c2cc1C | 7%

Not a retest: 2 of the compounds above.
SMILES | VDR inhibitor
Nc1nc2c([nH]c(=S)n2C2OC(CO)C(O)C2O)c(=O)[nH]1 (stereo not drawn) | ?
COC(=O)NC(C)N1C(=O)C2C3C=CC(C3)C2C1=O (stereo not drawn) | -7%

Other entries.
SMILES | VDR inhibitor
CCOC(=O)c1cc(-c2ccccc2)sc1NC(=O)CN1C(=O)NC(CC)(c2ccccc2)C1=O (stereo not drawn) | 7%
Cc1cc(C)n2nc(SCC(=O)NC(=O)NCc3ccco3)nc2n1 | 0%
Cc1nn2c(-c3ccc(F)cc3)ccnc2c1Br | -8%
Cc1cc(F)ccc1NC(=O)CCCN(C)S(=O)(=O)c1ccc(F)cc1 | -27%
Cc1cc(C)n(-c2nnc(NCc3ccc(Cl)cc3)nn2)n1 | 10%
CN1CCN(c2nc3c(c(=O)n(C)c(=O)n3C)n2Cc2ccc(F)cc2)CC1 | -2%
Cc1[nH]c2ccccc2c1C(=O)COC(=O)c1c(-c2ccccc2Cl)noc1C | 9%
O=C(Nc1ccccc1F)c1ccc2c(Cl)c3c(nc2c1)CCC3 | -14%
COc1cc(S(=O)(=O)N2CCOCC2)cc(C(=O)OCC(=O)NCc2ccco2)c1OC | -20%
COc1cccc(/C=N/Nc2ccc(S(=O)(=O)Nc3ccccc3C(=O)O)cc2[N+](=O)[O-])c1O | ?
COc1cccc(/C=N/NC(=O)CN(CCc2ccccc2)S(=O)(=O)c2ccc(NC(C)=O)cc2)c1 | -1%
Cc1ccc(-n2c(N)c(C(=O)NCc3ccco3)sc2=S)cc1 | -14%
CCc1nn2c(=O)cc(COC(=O)c3cccc(NC(=O)c4ccccc4C)c3)nc2s1 | 10%
CNC(=S)Nc1cccc(Cl)c1C | -18%
O=C(Nc1cccc(S(=O)(=O)N2CCOCC2)c1)C(c1ccccc1)N1CCCCC1 (stereo not drawn) | -7%
Cc1ccc(C(=O)N/C(=C\c2ccco2)C(=O)NCCN2CCOCC2)cc1 | 1%
O=C(CCn1c(=S)[nH]c2ccccc2c1=O)N1CCOCC1 | -9%
O=C1CN2C(=N1)N(Cc1ccccc1)c1ccccc12 | 15%
CC(=O)OCC(=O)C1(O)CCC2C3CCC4=CC(=O)C=CC4(C)C3C(=O)CC21C (stereo not drawn) | 8%
Cc1cc(C(=O)Nc2nc(-c3ccccn3)cs2)ccc1[N+](=O)[O-] | -4%
C=CCN1CCN(C(c2cc(OC)ccc2OC)c2nnnn2CC2CCCO2)CC1 (stereo not drawn) | -20%
O=c1[nH]c(=O)n(CCc2ccc(F)cc2)c(O)c1C=NCc1ccc2c(c1)OCO2 | 13%
O=C1N(c2ccccc2C(F)(F)F)O[C@@]1(c1ccccc1)C1CCCCC1 | -1%
Cc1c(C=O)c(=O)n(-c2ccccc2)n1C | 0%
Cc1ccc2[nH]c3c(NCCCN4CCCC4=O)ncnc3c2c1 | 9%

New compounds follow:
SMILES | VDR inhibitor
COCCN=C1NN=C(c2cc(C)n(CC3CCCO3)c2C)CS1 (stereo not drawn) | -18%
S=C(NCc1ccc(Cl)cc1)NN1CCOCC1 | -21%
COc1ccc(CC(=O)NNC(=O)COc2ccc(Cl)cc2C)cc1S(=O)(=O)N1CCOCC1 | -2%
CCOC(=O)c1sc(NC(=S)NC(=O)c2cccc(Cl)c2)c(C(=O)OCC)c1C | -14%
Cc1c(C2Nc3ccccc3NC3=C2C(=O)CC(C)(C)C3)cnn1C (stereo not drawn) | -11%
O=C(c1ccco1)N1CCN(c2c([N+](=O)[O-])nn(-c3ccc(Cl)cc3)[n+]2[O-])CC1 | -7%
CCOC(=O)/C=C1\Nc2ccccc2SC1=O | -18%
COc1cc(CCCN[C@H](CN)Cc2ccccc2)cc(OC)c1OC | -19%
COc1ccccc1NC(=O)CCCN1C(=O)C2CC=CCC2C1=O (stereo not drawn) | -17%
Cc1cc(NC(=O)CSc2nc(-c3ccco3)cc(C(F)(F)F)n2)n(-c2ccccc2)n1 | 2%
CC(=O)N1CCc2cc(C(=O)CN3CCN(c4ccccc4F)CC3)ccc21 | -16%
COc1cc(NC(=S)N2CCN(S(C)(=O)=O)CC2)cc(OC)c1 | 22%
COc1ccc(Cl)cc1NC(=O)c1cn(C2CCCCC2)c(=O)c2c1c1ccccc1n2C | -6%
COc1cc(/C=N\NC(=O)c2ccc(C)nc2)ccc1OC(=O)c1ccco1 | 8%
COc1c2c(cc3c1C(CC(=O)c1c(O)c(OC)c4occc4c1OC)[N+](C)(C)CC3)OCO2 (stereo not drawn) | -22%
Cc1ccc(NC(=O)C2CCN(S(=O)(=O)c3ccccc3)CC2)cc1 | -2%
CCOc1cc(C2NC(=O)NC(C)=C2C(=O)OC(C)CC)cc(Br)c1O (stereo not drawn) | -1%
CC1CN(c2ccc([N+](=O)[O-])cc2F)CCN1C(=O)c1ccco1 (stereo not drawn) | -9%
CC1(C)OC(=O)C(=CNc2ncccn2)C(=O)O1 | 20%
COn1c(SCc2ccccc2)nc2ccccc2c1=O | -2%
Cc1cc(NC(=O)CSc2nc(C(C)(C)C)nc3ccccc23)no1 | -16%
Cc1ccc(NC(=O)Cn2c(=O)ccc3cc(S(=O)(=O)N4CCC(C)CC4)ccc32)c(C)c1 | 2%
Cc1cccc(N2C(=O)CC(n3ccnc3)C2=O)c1C (stereo not drawn) | -17%
COCCNc1cc(NCCOC)c([N+](=O)[O-])cc1[N+](=O)[O-] | 8%
Cc1ccc(CN(C(=O)COc2cccc([N+](=O)[O-])c2)c2ccccn2)cc1 | 13%

Sorted by molecular weight (low to high): part of the list above.
SMILES | VDR inhibitor
COc1ccccc1NC(=O)CCCN1C(=O)C2CC=CCC2C1=O (stereo not drawn) | -17%
Cc1ccc(NC(=O)C2CCN(S(=O)(=O)c3ccccc3)CC2)cc1 | -2%
Cc1ccc(CN(C(=O)COc2cccc([N+](=O)[O-])c2)c2ccccn2)cc1 | 13%

(more compounds)
SMILES | VDR inhibitor
O=C(Nc1cccc(-c2nc3cccnc3s2)c1)c1cccnc1Cl | -9%
CCOC(=O)c1c(C)[nH]c(C)c1S(=O)(=O)NCC(=O)N(C)c1ccc(C)c(C)c1 | -1%
CCc1ccc(NC(=O)c2ccc3c(c2)C(=O)N(CCOC)C3Nc2ccc(CC)cc2)cc1 (stereo not drawn) | -6%
CCN1CCN(CCCNC(=O)C2CCCN(c3nnc(-n4cccc4)s3)C2)CC1 (stereo not drawn) | 20%
CN(CCNC(=O)Cn1c(=O)sc2ccccc21)Cc1ccccc1 | -13%
OC[C@@H]1[C@@H](c2ccc(F)cc2)C(c2cccc(Cl)c2)=NN1c1ccccc1 | -18%&-3%
Cc1ccccc1NC(=O)CSc1cn[nH]n1 | -15%
CCOc1ccc(N(Cc2cc3ccc(C)cc3[nH]c2=O)S(C)(=O)=O)cc1 | 5%
O=C(c1ccc2c(c1)N(Cc1ccc(F)cc1)CCS2)N1CCN(c2ccccc2)CC1 | -7%
CC(C)CN1C(=O)C(=O)N(CC(=O)c2ccc3c(c2)CCCC3)C1=O | -8%
CN(C)S(=O)(=O)c1ccc(NC(=S)NC(=O)c2cccs2)cc1 | -13%
Cc1c(C(=O)Nc2nccs2)oc2ccc(F)cc12 | -10%
Cc1ccccc1NC(=O)N1CCCC1C(=O)NCc1ccccc1 (stereo not drawn) | -14%
N/C(=N\c1nc(CSc2nc3ccccc3s2)cc(=O)[nH]1)Nc1ccc(F)cc1 | -17%
CC(=O)Nc1ccccc1-c1nc2ccccc2n(CC(=O)c2ccc(C)c(C)c2)c1=O | 15%
Fc1ccc(-c2noc(C3CCN(Cc4cccnc4)CC3)n2)cc1 | 1%
O=C(CS(=O)c1cccc(C(F)(F)F)c1)Nc1ccccc1Cl (stereo not drawn) | -2%
CC(C(=O)Nc1ccc(F)cc1Cl)N1CCN(S(=O)(=O)c2cccs2)CC1 (stereo not drawn) | -11%
CCOC(=O)C1=CN(CC)S(=O)(=O)NC1c1cccc(OC)c1 (stereo not drawn) | 9%
COc1cc(/C=N/N(C)C)ccc1OC(=O)c1cccs1 | -21%
CCCC(=O)Nc1ccc(C(=O)NCc2ccccn2)cc1 | 7%
Cc1nc(N/N=C/c2ccc(Br)cc2)cc(N2CCOCC2)n1 | -11%

Screening data from PubChem.
